# Vaccinia stage: Vaccinia orthopox stage-specific inhibition; Vaccinia-infected cells, mCherry/Venus stage reporter fluorescence; stronger effect = lower value; some inactives read as strong as hits; activity change (mCherry), % (test concentration not listed); hit rate 0.01% among 89,000;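 active means mCherry past -33% and 40 or more points under the early reporter, replicates agreeing; inconclusive means past -33% without that gap or agreement; tested in A549 cells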;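 further: scaled between vehicle wells and reference inhibitor wells; 23 nL library stock went into each well; one replicate is shown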
# Vaccinia stage Venus: also measured in Vaccinia stage; calls as there; activity change (Venus), %; measured here: Venus reporter, other viral stage;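 negative = less Venus signal; first of two replicates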
# Starred values were filed as active, the others as inactive; ? = inconclusive; · = not tested or not shown; & = joins results of further samples. A portion of the library; count on the stated rates, not on these rows.
entry	Molecule	Vaccinia stage Venus	Vaccinia stage
1	C[C@H]1CN([C@@H](C)CO)C(=O)Cc2cc(NC(=O)Nc3ccc4c(c3)OCO4)ccc2O[C@H]1CN(C)Cc1ccc(-c2ccccc2)cc1	3	9
2	O=C(C[C@@H]1CC[C@@H]2NC[C@@H](O)COC[C@H]2O1)Nc1ccc(-c2ccccc2)cc1	-7	-34
3	C[C@@H]1CN([C@H](C)CO)C(=O)c2cc(C#CC3(O)CCCC3)cnc2O[C@H]1CN(C)C(=O)Cc1ccccc1	0	10
4	C[C@@H]1CN([C@H](C)CO)C(=O)c2cc(NC(=O)Nc3ccc(C(F)(F)F)cc3)ccc2O[C@@H](C)CCCCO[C@H]1CN(C)Cc1ccc(Cl)c(Cl)c1	-1	-4
5	COCC#Cc1ccc2c(c1)O[C@@H](CN(C)C(=O)CC1CC1)[C@H](C)CN([C@H](C)CO)S2(=O)=O	-11	-10
6	OC[C@@H]1[C@H](c2ccc(-c3ccc(F)cc3)cc2)[C@H]2CN(Cc3ccccn3)CCCCN12	11	-8
7	C[C@H](CO)N1C[C@H](C)[C@@H](CN(C)CC2CCCCC2)Oc2c(NS(=O)(=O)c3cn(C)cn3)cccc2C1=O	3	5
8	COc1ccc(S(=O)(=O)Nc2ccc3c(c2)C(=O)N([C@H](C)CO)C[C@H](C)[C@@H](CN(C)S(C)(=O)=O)OCCCC[C@H](C)O3)cc1	-5	8
9	O=C(C[C@@H]1C[C@H]2c3cc(NC(=O)CC4CC4)ccc3O[C@H]2[C@H](CO)O1)NCc1ccccc1	-3	-7
10	COc1ccc(S(=O)(=O)Nc2ccc3c(c2)C(=O)N([C@H](C)CO)C[C@@H](C)[C@H](CN(C)Cc2ccncc2)OCCCC[C@H](C)O3)cc1	-30	-25
11	C[C@H]1CN([C@@H](C)CO)C(=O)c2cccc(NC(=O)c3ccncc3)c2O[C@@H]1CN(C)CC1CCCCC1	12	9
12	C[C@H]1CN([C@@H](C)CO)C(=O)Cc2cc(NS(=O)(=O)c3ccccc3)ccc2O[C@@H]1CN(C)Cc1ccncc1	1	13
13	CNC[C@@H]1Oc2c(NS(=O)(=O)c3ccccc3)cccc2C(=O)N([C@@H](C)CO)C[C@@H]1C	-1	1
14	Cc1nn(C)cc1NC(=O)C[C@H]1CC[C@H]2[C@H](COc3ccc(NC(=O)Nc4cccc(Cl)c4)cc3C(=O)N2C)O1	17	25
15	CN1CCN(C(=O)[C@@H]2[C@@H](CO)[C@@H]3Cn4c(ccc(-c5cccnc5)c4=O)[C@@H]3N2CC2CC2)CC1	3	3
16	C[C@@H]1CCCCO[C@@H](CN(C)S(=O)(=O)c2ccc(F)cc2)[C@@H](C)CN([C@@H](C)CO)C(=O)c2cc(N(C)C)ccc2O1	1	4
17	O=C(O)C[C@@H]1C[C@H]2c3cc(NS(=O)(=O)c4ccc(F)cc4)ccc3O[C@H]2[C@H](CO)O1	4	3
18	C[C@@H](NC(=O)C[C@@H]1C[C@H]2c3cc(NC(=O)NC4CCCC4)ccc3O[C@H]2[C@H](CO)O1)c1ccccc1	4	-4
19	CC(C)NC(=O)Nc1cccc2c1O[C@@H](CN(C)CC1CCCCC1)[C@@H](C)CN([C@H](C)CO)C2=O	-9	-13
20	CCCNC(=O)N1[C@H](CO)[C@H](c2ccc(C#CCN(C)C)cc2)[C@@H]1C#N	9	22

# As a working copy, some entries already given.
entry	Molecule	Vaccinia stage Venus	Vaccinia stage
2	O=C(C[C@@H]1CC[C@@H]2NC[C@@H](O)COC[C@H]2O1)Nc1ccc(-c2ccccc2)cc1	-7	-34
3	C[C@@H]1CN([C@H](C)CO)C(=O)c2cc(C#CC3(O)CCCC3)cnc2O[C@H]1CN(C)C(=O)Cc1ccccc1	0	10
4	C[C@@H]1CN([C@H](C)CO)C(=O)c2cc(NC(=O)Nc3ccc(C(F)(F)F)cc3)ccc2O[C@@H](C)CCCCO[C@H]1CN(C)Cc1ccc(Cl)c(Cl)c1	-1	-4
5	COCC#Cc1ccc2c(c1)O[C@@H](CN(C)C(=O)CC1CC1)[C@H](C)CN([C@H](C)CO)S2(=O)=O	-11	-10
6	OC[C@@H]1[C@H](c2ccc(-c3ccc(F)cc3)cc2)[C@H]2CN(Cc3ccccn3)CCCCN12	11	-8
7	C[C@H](CO)N1C[C@H](C)[C@@H](CN(C)CC2CCCCC2)Oc2c(NS(=O)(=O)c3cn(C)cn3)cccc2C1=O	3	5

# Continued:
entry	Molecule	Vaccinia stage Venus	Vaccinia stage
21	C[C@@H]1CCCCO[C@@H](CN(C)Cc2ccc(Cl)c(Cl)c2)[C@@H](C)CN([C@H](C)CO)C(=O)c2cc(NS(=O)(=O)c3cccs3)ccc2O1	·	?
22	CN1C(=O)c2cc(NC(=O)C3CCC3)ccc2OC[C@H]2O[C@@H](CC(=O)NCc3ccccc3F)CC[C@@H]21	-5	7
23	CN(C)CC(=O)N1[C@H](C#N)[C@H](c2ccc(C#CC3CCCC3)cc2)[C@H]1CO	-8	-17
24	Cc1noc(C)c1S(=O)(=O)Nc1ccc2c(c1)C(=O)N([C@H](C)CO)C[C@@H](C)[C@@H](CN(C)S(C)(=O)=O)O2	5	1
25	CN(C)C(=O)C[C@H]1CC[C@H]2[C@@H](COC[C@@H](O)CN2C(=O)C2CCOCC2)O1	8	9
26	C[C@H](CO)N1C[C@H](C)[C@H](CN(C)S(=O)(=O)c2cccc(F)c2)Oc2ncc(C#Cc3cccc(F)c3)cc2C1=O	·	?
27	CC(C)(C)OC(=O)CC[C@]12N=C(c3ccc(OCCCO)cc3)O[C@H]1c1ccccc1CN(Cc1ccccc1)C2=O	·	?
28	CO[C@H]1CC[C@@H]2CCN(C)C(=O)[C@H](C)[C@H](OC)CN(C)C(=O)c3cccc(C#N)c3OC[C@@H]1O2	-2	9
29	CNC[C@@H]1Oc2c(NC(=O)Nc3ccccc3)cccc2C(=O)N([C@@H](C)CO)C[C@@H]1C	-2	2
30	COc1cccc(-c2ccc3c(c2)[C@@H]2[C@@H](CCN2S(=O)(=O)c2ccccc2C)[C@H](CO)N3)c1	-11	-10
31	C[C@@H]1CN([C@@H](C)CO)C(=O)c2cccc(NC(=O)C3CC3)c2O[C@@H]1CN(C)Cc1ccc(C(=O)Nc2ccccc2N)cc1	-10	-16
32	C[C@H]1CN([C@@H](C)CO)C(=O)c2cccc(NS(=O)(=O)c3cn(C)cn3)c2O[C@@H]1CN(C)Cc1ccc(C(=O)O)cc1	13	19
33	C[C@H](CO)N1C[C@H](C)[C@H](CN(C)C)Oc2cc(C#Cc3ccccn3)ccc2S1(=O)=O	13	26
34	C[C@H]1CCCCO[C@H](CN(C)C(=O)CCCN(C)C)[C@@H](C)CN([C@@H](C)CO)C(=O)c2cc(N(C)C)ccc2O1	-4	-13
35	C[C@@H]1CCCCO[C@@H](CN(C)C(=O)CCCN(C)C)[C@H](C)CN([C@H](C)CO)C(=O)c2cc(NC(=O)CCCN(C)C)ccc2O1	4	13
36	CNC[C@@H]1Oc2ccc(NS(=O)(=O)c3c(C)noc3C)cc2C(=O)N([C@H](C)CO)C[C@H]1C	9	22
37	C[C@@H]1CCCCO[C@@H](CN(C)C(=O)Cc2ccccc2)[C@@H](C)CN([C@H](C)CO)C(=O)c2cc(NS(=O)(=O)c3ccc(Cl)cc3)ccc2O1	-10	-1
38	CCCNC(=O)[C@@H]1[C@@H](CO)[C@@H]2Cn3c(ccc(-c4cccnc4)c3=O)[C@@H]2N1CCC	4	9
39	CC(=O)N1CCCCN2[C@H](C1)[C@@H](c1ccc(C#Cc3ccccc3F)cc1)[C@@H]2CO	·	?
40	C[C@H](CO)N1C[C@H](C)[C@@H](CN(C)S(=O)(=O)c2ccc(F)cc2)Oc2cc(Br)ccc2S1(=O)=O	-9&-27	-5&-25
41	C[C@@H]1CCCCO[C@@H](CN(C)Cc2ccc(Cl)c(Cl)c2)[C@H](C)CN([C@H](C)CO)C(=O)c2cc(NC(=O)Nc3cccc4ccccc34)ccc2O1	10	8
42	C[C@H]1CN([C@@H](C)CO)C(=O)Cc2cc(NC(=O)c3ccncc3)ccc2O[C@H]1CN(C)C(=O)Nc1ccc(C(F)(F)F)cc1	-1	-7
43	C[C@H](CO)N1C[C@H](C)[C@@H](CN(C)Cc2ccc(Cl)c(Cl)c2)Oc2ccc(NC(=O)Cn3cnnn3)cc2C1=O	0	13
44	CO[C@@H]1CN(C)C(=O)c2ccc(NC(=O)C3CCC3)cc2OC[C@H](C)NC[C@@H]1C	-4	-2
45	CCCN1C[C@@H](C)[C@@H](OC)CN(C)C(=O)c2ccc(NC(=O)Nc3cccc(F)c3)cc2OC[C@@H]1C	-7	-6
46	CCCN(C)C[C@@H]1Oc2ncc(C#CC3(O)CCCC3)cc2C(=O)N([C@H](C)CO)C[C@@H]1C	8	22
47	C[C@@H]1CCCCO[C@@H](CN(C)C(=O)Nc2ccccc2)[C@H](C)CN([C@H](C)CO)C(=O)c2cc(NS(=O)(=O)c3cccs3)ccc2O1	-18	-26
48	COC(=O)C[C@@H]1CC[C@@H]2[C@H](COc3ccc(NC(=O)Nc4ccc(C)cc4)cc3C(=O)N2C)O1	-12	-14
49	C[C@H](CO)N1C[C@H](C)[C@@H](CN(C)C(=O)Nc2ccc(C(F)(F)F)cc2)OCCCC[C@H](C)Oc2ccc(NS(=O)(=O)c3ccc(Cl)cc3)cc2C1=O	-9	-10
50	CC(C)NC(=O)Nc1ccc2c(c1)C(=O)N([C@@H](C)CO)C[C@@H](C)[C@@H](CN(C)C(=O)NC1CCCCC1)OCCCC[C@H](C)O2	7	16
51	COc1ccc(S(=O)(=O)N(C)C[C@@H]2OCCCC[C@@H](C)Oc3ccc(NC(=O)Cc4ccccc4)cc3C(=O)N([C@H](C)CO)C[C@@H]2C)cc1	7	24
52	O=C(C[C@@H]1CC[C@@H]2NC[C@H](O)COC[C@H]2O1)NCCc1ccncc1	9	10
53	C[C@H](CO)N1C[C@H](C)[C@@H](CN(C)S(C)(=O)=O)Oc2ccc(NC(=O)Cc3ccccc3)cc2C1=O	10&-7	10&3
54	COc1ccc(S(=O)(=O)Nc2ccc3c(c2)C(=O)N([C@H](C)CO)C[C@@H](C)[C@@H](CN(C)Cc2ccc(C(F)(F)F)cc2)O3)cc1	17	19
55	C[C@@H]1CN([C@@H](C)CO)C(=O)c2cccc(N(C)C)c2O[C@H]1CN(C)Cc1ccncc1	-2	-10
56	C[C@H]1CN([C@@H](C)CO)C(=O)CCCn2cc(nn2)CO[C@H]1CN(C)S(=O)(=O)c1ccc(-c2ccccc2)cc1	-9	-18
57	C[C@@H]1CCCCO[C@@H](CN(C)C(=O)c2ccncc2)[C@@H](C)CN([C@H](C)CO)C(=O)c2cc(NS(=O)(=O)c3ccc(Cl)cc3)ccc2O1	1	21
58	C[C@@H]1CN([C@H](C)CO)S(=O)(=O)c2ccc(-c3ccncc3)cc2O[C@H]1CN(C)S(C)(=O)=O	3	2
59	O=C(c1ccc2c(c1)OCO2)N1C[C@H]2[C@@H](c3ccccc31)[C@H](CO)N2C(=O)CC1CC1	6	9
60	COc1ccc2c3c([nH]c2c1)[C@@H](CO)N(C(=O)c1ccccn1)CC31CCN(C(=O)C2CCCCC2)CC1	-3	2

# Entries from the list above that contain a COOH group, in the order listed:
entry	Molecule	Vaccinia stage Venus	Vaccinia stage
17	O=C(O)C[C@@H]1C[C@H]2c3cc(NS(=O)(=O)c4ccc(F)cc4)ccc3O[C@H]2[C@H](CO)O1	4	3
32	C[C@H]1CN([C@@H](C)CO)C(=O)c2cccc(NS(=O)(=O)c3cn(C)cn3)c2O[C@@H]1CN(C)Cc1ccc(C(=O)O)cc1	13	19

# (more compounds)
entry	Molecule	Vaccinia stage Venus	Vaccinia stage
61	C[C@H](CO)N1C[C@H](C)[C@@H](CN(C)Cc2ccc(-c3ccccc3)cc2)Oc2ccc(NC(=O)Cn3cnnn3)cc2C1=O	-2	3
62	O=C(C[C@H]1C[C@@H]2c3cc(NC(=O)Nc4ccccc4F)ccc3O[C@@H]2[C@@H](CO)O1)NCC(F)(F)F	5	10
63	C[C@H]1CN([C@@H](C)CO)C(=O)Cc2cc(NC(=O)Nc3ccc(F)cc3)ccc2O[C@H]1CN(C)S(=O)(=O)c1cccs1	·	?
64	CCC(=O)N1[C@H](CO)[C@H](c2ccccc2)[C@H]1CN(C(C)C)S(C)(=O)=O	3	5
65	N#Cc1cccc(-c2ccc(C3[C@H]4CNC[C@@H]3N4S(=O)(=O)c3ccccc3F)cc2)c1 (stereo partly drawn)	-4	1
66	CCNC(=O)Nc1ccc2c(c1)C(=O)N(C)[C@H]1CC[C@@H](CC(=O)NCc3ccc(F)cc3)O[C@@H]1CO2	7	6
67	C[C@H]1CN([C@@H](C)CO)C(=O)c2cc(/C=C/c3ccccc3)cnc2O[C@@H]1CN(C)Cc1ccccc1F	·	?
68	CCCN1C[C@H](C)[C@H](OC)CN(C)C(=O)c2cc(NC(=O)C3CC3)ccc2OC[C@@H]1C	6	8
69	Cc1cc(C(=O)Nc2cccc3c2O[C@H](CN(C)S(=O)(=O)c2c(C)noc2C)[C@H](C)CN([C@@H](C)CO)C3=O)n(C)n1	12	17
70	O=C(N[C@@H]1CC[C@H](CCn2cc(C3CCCC3)nn2)O[C@@H]1CO)c1cccnc1	17	23
71	C[C@@H]1CCCCO[C@H](CN(C)C(=O)c2ccccc2)[C@H](C)CN([C@@H](C)CO)C(=O)c2cc(NS(=O)(=O)c3ccc(Cl)cc3)ccc2O1	·	?
72	C[C@H]1CN([C@@H](C)CO)C(=O)c2cc(NS(C)(=O)=O)ccc2O[C@H]1CN(C)C(=O)Nc1ccc2c(c1)OCO2	-4	21
73	C/C=C/c1ccc([C@H]2[C@@H](CO)N(CCC)[C@H]2CNC(=O)CN2CCOCC2)cc1	7	3
74	COCC#Cc1cnc2c(c1)C(=O)N([C@H](C)CO)C[C@H](C)[C@H](CN(C)C(=O)c1ccc3c(c1)OCO3)O2	0	26
75	COc1cccc(S(=O)(=O)Nc2ccc3c(c2)OC[C@@H](C)N(Cc2cc(F)ccc2F)C[C@@H](C)[C@H](OC)CN(C)C3=O)c1	·	?
76	C[C@H]1CN([C@@H](C)CO)C(=O)c2cc(NC(=O)c3ccncc3)ccc2O[C@@H]1CN(C)C(=O)NC1CCCCC1	13	17

# Screening data as filed in PubChem.
